Source: PubChem
Mtb growth – Confirmatory growth inhibition assay against Mycobacterium tuberculosis H37Rv, potency (AID 1949); most inactive calls were filed without a number and no value below 0 was filed; inhibition, % at 10 µg/mL, or IC50 in µg/mL where a hit was titrated; 1.6% of 100,000 active;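 active = confirmed in a dose series; inconclusive = about 50% or more but not retested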;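 also: bacteria grown 7 days with compound before Alamar blue readout; 0% = untreated bacteria and 100% = reference antibiotic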
* = called active by the depositor; i = inactive; ? = inconclusive. This is a subset, so the mix of outcomes need not match the whole.

SMILES	Mtb growth
CCC1(CC)C(=O)C(C)(C)C(=O)OC1c1cccs1 (stereo not drawn)	2%
Cc1ccc(S(=O)(=O)N(CC(=O)N2CCOCC2)Cc2cccc(C)c2)cc1	2%
COc1ccc(CCNc2ncnc3nc[nH]c23)cc1OC	1%
Cc1ccc(S(=O)(=O)Nc2nc(N3C(=O)c4ccccc4C3=O)n(-c3ccccc3)n2)cc1	i
CCCC(=O)Nc1ccc2nc(SCC(=O)N3CCc4ccccc43)sc2c1	i
CC(CCc1ccccc1)NC(=O)CCC(=O)O (stereo not drawn)	i
CC1CCCCC1NC(=O)c1ccc(Br)cc1 (stereo not drawn)	i
N#Cc1ccccc1COc1ccc(C(=S)N2CCCC2)cc1Cl	i
CC1CN(C(=O)NC23CC4CC(CC(C4)C2)C3)CC(C)O1 (stereo not drawn)	i
CCCOc1ccc([N+](=O)[O-])cc1C1NC(=O)NC(C)=C1C(=O)OC (stereo not drawn)	i
O=C(CCc1ccc(S(=O)(=O)NCc2ccccc2)cc1)N1CCN(c2ccccc2F)CC1	i
C=CCNC(=O)c1ccccc1NC(=O)CSCc1ccc(C)cc1	1%
CCn1c(CNC(=O)c2ccc(OC)c(OC)c2)nnc1SCC(=O)Nc1ccc(Br)c(Cl)c1	2%
CC(C)(C)c1ccc(CSc2nnc(NC(=O)c3ccccc3Cl)s2)cc1	i
CC(=O)c1ccccc1OCCCCN1CCN(C)CC1	i
Cc1ccc(C(=O)Nc2nccs2)cc1Br	?
O=C(NC(=S)Nc1ccccc1-c1ccccc1)c1ccccc1	29%
COc1cccc(NC(=O)c2ccc(NC(=O)C(C)(C)C)cc2)c1	5%
COc1ccc(-c2nn(-c3ccccc3)cc2C(=O)Nc2ccccc2Br)cc1OC	4%
COc1ccc(CCNS(=O)(=O)c2ccc(OCC(=O)NCc3ccccc3Cl)cc2)cc1OC	i
CC1=C(C(=O)Nc2ccccn2)C(c2ccc(O)cc2)NC(=S)N1 (stereo not drawn)	2%
CS(=O)(=O)N(CC(=O)Nc1ccccc1C(=O)NCc1ccco1)c1cc(Cl)cc(Cl)c1	3%
O=C(CC(c1ccccc1)c1cc(Br)ccc1O)NCCCN1CCOCC1 (stereo not drawn)	i
COc1ccc(NC(=O)c2ccc(N(C)S(C)(=O)=O)cc2)c(OC)c1	i
COc1ccc(Cl)cc1C(=O)n1nnc2ccccc21	1%
Cc1ccc(S(=O)(=O)NCCN2CCOCC2)cc1-c1nnc2c3ccccc3c(C)nn12	i
Cc1c(OCc2cccc(F)c2)ccc2c1oc(=O)c1ccccc12	i
CN1CCCN(C2CC(=O)N(c3ccc(Br)cc3)C2=O)CC1 (stereo not drawn)	i
CCC(C)C(=O)Nc1cc(Cl)ccc1C(=O)O (stereo not drawn)	i
CC(NS(=O)(=O)c1ccc(CCC(=O)N2CCN(C)CC2)cc1)c1ccccc1 (stereo not drawn)	i
Cc1ccc(OCC(=O)N(Cc2ccc(F)cc2)C2CCS(=O)(=O)C2)cc1 (stereo not drawn)	i
Cc1ccc(N2C(=O)CC(N3CCC(C(N)=O)CC3)C2=O)c(Br)c1 (stereo not drawn)	i
CC12CCC(C(=O)N3CCN(c4ccccc4F)CC3)(OC1=O)C2(C)C (stereo not drawn)	i
O=C(CCC(=O)NNC(=O)Nc1cccc(Cl)c1)NCc1ccccc1	i
COc1ccc(-c2noc(Cc3ccc(C)cc3)n2)cc1OC	8%
NS(=O)(=O)c1ccc(NC(=O)CSc2nnc3scc(-c4ccc(Cl)cc4)n23)cc1	i

An excerpt of these results, field by field:
O=C(CC(c1ccccc1)c1cc(Br)ccc1O)NCCCN1CCOCC1 (stereo not drawn)
  Mtb growth = i

COc1ccc(NC(=O)c2ccc(N(C)S(C)(=O)=O)cc2)c(OC)c1
  Mtb growth = i

COc1ccc(Cl)cc1C(=O)n1nnc2ccccc21
  Mtb growth = 1%

Cc1ccc(S(=O)(=O)NCCN2CCOCC2)cc1-c1nnc2c3ccccc3c(C)nn12
  Mtb growth = i

Returning to the listing, starting 4 compounds before the break.
SMILES	Mtb growth
CC12CCC(C(=O)N3CCN(c4ccccc4F)CC3)(OC1=O)C2(C)C (stereo not drawn)	i
O=C(CCC(=O)NNC(=O)Nc1cccc(Cl)c1)NCc1ccccc1	i
COc1ccc(-c2noc(Cc3ccc(C)cc3)n2)cc1OC	8%
NS(=O)(=O)c1ccc(NC(=O)CSc2nnc3scc(-c4ccc(Cl)cc4)n23)cc1	i
O=S(=O)(Nc1ncccn1)c1ccc(NC(=S)NCCC2=CCCCC2)cc1	i
Cc1ccccc1Cn1c2ccccc2c(=O)c2ccccc21	i
COc1ccc(OC(=O)COc2ccccc2)cc1	i
O=C(NCc1ccco1)c1ccccc1SCc1ccc(F)cc1	i
COCCNC(=O)c1cc2sc3ccccc3c2s1	?
CC(NC(=O)c1ccncc1)C(C)(C)C (stereo not drawn)	i
Cc1cccc(NCc2ccccc2OCc2ccccc2F)c1	6%
O=C1CC(=O)N2N=C(c3ccccc3)SC2=N1	i
Cn1c(=O)c2c(nc(OCCOc3ccccc3)n2Cc2ccc(Cl)cc2Cl)n(C)c1=O	i
CCSCCNC(=O)c1cncc(Br)c1	i
COc1cccc(C(=O)COc2cccc(NC(=O)c3ccco3)c2)c1	1%
C=CCn1c(SCC(=O)Nc2ccc(OC)cc2)nnc1C(c1ccccc1)c1ccccc1	2%

Copied from the list.
C=CCn1c(SCC(=O)Nc2ccc(OC)cc2)nnc1C(c1ccccc1)c1ccccc1 @ Mtb growth: 2%
COc1cccc(C(=O)COc2cccc(NC(=O)c3ccco3)c2)c1 @ Mtb growth: 1%

Additional results follow.
SMILES	Mtb growth
CCC1S/C(=N\C(=O)Nc2ccc(Cl)c(Cl)c2)NC1=O (stereo not drawn)	i
CC(C)c1nccn1S(=O)(=O)c1cc(Cl)ccc1Cl	i
Cc1cc2ncn(CC(O)COc3ccc(C(C)C)cc3)c2cc1C (stereo not drawn)	5.4µg/mL*
CCOc1cc(C=O)c(Br)cc1OCC(=O)Nc1ccccc1C	9%
COc1ccc(CCNS(=O)(=O)c2ccc(F)c(Cl)c2)cc1OC	4%
CCCCOc1nnc(-c2ccccc2)c2ccccc12	8%
O=S(=O)(NCCSCc1c(F)cccc1Cl)c1ccccc1	7%
COc1ccccc1NC(=O)Cn1cnc2sc3c(c2c1=O)CCC(C)C3 (stereo not drawn)	i
COc1cccc(Nc2nc(C)cc(C)c2C(N)=O)c1	i
COC(=O)c1c(N)n(Cc2ccc(Cl)cc2)c2nc3ccccc3nc12	i
CCc1nc(SCC(=O)Nc2ccnc3ccccc23)n[nH]1	i
COc1ccc(/C=C2\SC(=O)N(Cc3ccccc3)C2=O)cc1	0%
Cc1ccc2nc(SCc3nc(-c4cccs4)no3)[nH]c2c1	2%
CC(NC(=O)c1cc(-c2ccc3c(c2)OCO3)nc2ccccc12)C1CCCO1 (stereo not drawn)	2%
COC(=O)CN1c2ccccc2NC2=C(C(=O)CC(C)(C)C2)C1c1ccc(OC)cc1 (stereo not drawn)	i
CN1CCN(Cc2nc3c(c(=O)n(C)c(=O)n3C)n2CCCO)CC1	i
COc1ccccc1C(=O)Nc1ccc(CC#N)cc1	i
O=C(C1CC1)N1N=C(c2cccc(Br)c2)CC1(O)C(F)(F)F (stereo not drawn)	i
COc1c(S(=O)(=O)N2CCN(Cc3ccccc3)CC2)ccc(Cl)c1Cl	i
COc1ccc(OC)c(C(=O)Cc2cc3cccc(OC)c3oc2=O)c1	i
O=C(NC(=S)Nc1ccc(NC(=O)c2cccs2)cc1)c1cc2ccccc2o1	i
CN(c1ccc(C(=O)Nc2ccc(Cl)cn2)cc1)S(=O)(=O)c1ccccc1	i
CC(C)(C)SCCNC(=O)CCSc1ccccc1	i
O=C(c1cccnc1)N1CCN(c2ccc3ccccc3n2)CC1	i
COCCNC(=O)c1c(NC(=O)c2nc(SC)ncc2Cl)sc2c1CCCC2	i
Cc1ccc(NC(=O)CSc2nnc(-c3cccs3)n2-c2ccc(F)cc2)cc1	i
CCOC(=O)C1=C(N)Oc2c(c(=O)[nH]c3ccc(C)cc23)C1c1ccc(OC)cc1 (stereo not drawn)	i
CCOc1cccc(OCCOCCn2cnc3ccccc3c2=O)c1	i
Cc1cc(Br)ccc1NC(=O)CSc1nnc(CNC(=O)c2ccccc2Cl)n1C	i
CCOc1ccc(NC(=O)C(C)C)cc1	i
Cn1c(=O)[nH]c(=O)c2[nH]c(CN3CCN(Cc4ccccc4)CC3)nc21	i
CC(=O)Oc1cccc2ccc(/C=C/c3ccc([N+](=O)[O-])cc3)nc12	28%
CC1CCc2c(sc(NC(=O)c3ccccc3Cl)c2C(=O)N2CCCCCC2)C1 (stereo not drawn)	4%
Cn1cnnc1Sc1cc(N2CCN(S(=O)(=O)c3ccc4ccccc4c3)CC2)ccc1[N+](=O)[O-]	i
O=C(COc1ccccc1Cl)N1CCN(c2ccc(F)cc2)CC1	i
CCCc1[nH]nc2c1C1(C(=O)Nc3ccc([N+](=O)[O-])cc31)C(C#N)=C(N)O2 (stereo not drawn)	i
Cc1ccc(C2Nc3ccccc3NC3=C2C(=O)CC(c2ccc4c(c2)OCO4)C3)s1 (stereo not drawn)	i
COCCNC(=O)Nc1cccc([N+](=O)[O-])c1	i
CC(=O)Nc1nc2ccc(S(=O)(=O)N3CCCC3)cc2s1	i
O=C1CC(c2ccco2)CC2=C1C(c1cccs1)Nc1ccccc1N2 (stereo not drawn)	i
CC(=O)Oc1ccc(-c2cccc(C(=O)Nc3cccc4ccccc34)c2)cc1	i
C=CCc1ccccc1OCCOCCNCCOC	i
Cc1cc(C)cc(C(=O)N2CCN(Cc3ccc4c(c3)OCO4)CC2)c1	i
Fc1cccc(NC(=S)NNC(=S)Nc2ccc(Cl)cc2)c1	i
COc1ccc(C(=O)N2CCN(C(=O)c3cccs3)CC2)cc1OC	i
CCOC(=O)c1cnc2nc(-c3ccccc3)[nH]n2c1=O	6%
COC(=O)c1sc(NC(=S)Nc2ccccc2SC)c(C(=O)OC)c1C	i
CC1(C(=O)Nc2cc(Cl)cc(Cl)c2)Cc2ccccc2C(=O)O1 (stereo not drawn)	22%
Cc1ccc(S(=O)(=O)Nc2ccc(O)c(Sc3nc(C)cc(C)n3)c2)cc1	i
CN(c1cccc(NC(=O)CN(c2cccc(Cl)c2)S(C)(=O)=O)c1)S(C)(=O)=O	i
COc1ccc(CSCC(=O)NCCC(C)C)cc1	i
Clc1cccc(OCCn2cncn2)c1Cl	i
Cn1c(CSCc2ccc(Cl)cc2)n[nH]c1=S	i
CC(=O)Nc1ccc(NC(=O)c2ccc(CSc3ccc(C)cc3)cc2)cc1	i
COc1ccc(S(=O)(=O)N2CCC(C(=O)N3CCC(C)CC3)CC2)cc1OC	i
COc1cccc(OC)c1OCCCNC1CCCC1	i
CC(Oc1ccccc1)c1nc(-c2cccc(Br)c2)no1 (stereo not drawn)	i
CC(C)NC(=O)c1ccccc1NC(=O)Nc1ccccc1	i
Cc1cc(F)c(F)cc1C(=O)N1CCOCC1	i
O=C(CN(c1cccc(Cl)c1)S(=O)(=O)c1ccc(Cl)cc1)N1CCc2ccccc2C1	i

4 compounds picked at random from those above:
SMILES	Mtb growth
CN(c1cccc(NC(=O)CN(c2cccc(Cl)c2)S(C)(=O)=O)c1)S(C)(=O)=O	i
COc1ccc(S(=O)(=O)N2CCC(C(=O)N3CCC(C)CC3)CC2)cc1OC	i
O=C(CN(c1cccc(Cl)c1)S(=O)(=O)c1ccc(Cl)cc1)N1CCc2ccccc2C1	i
CC(Oc1ccccc1)c1nc(-c2cccc(Br)c2)no1 (stereo not drawn)	i

Further records
SMILES	Mtb growth
O=C(c1cccc(F)c1)N1CCN(c2ccc([N+](=O)[O-])c(N3CCCC3)c2)CC1	i
S=C(NC1CCCCC1)N1CC=C(c2ccccc2)CC1	i
O=S(=O)(NCCC12CC3CC(CC(C3)C1)C2)c1cccc2nsnc12	i
O=C(COc1ccc2ccccc2c1Br)Nc1cccnc1	1%
O=C(Nc1ccc2c(c1)OCCO2)Nc1ccccc1Cl	i
Cc1ccc(NS(=O)(=O)c2ccc(Br)cc2)cc1[N+](=O)[O-]	i
CCOC(=O)C1=C(C)N=c2s/c(=C\c3ccc(OC)c(OCC)c3)c(=O)n2C1c1ccccc1Cl (stereo not drawn)	i
COc1ccc(OC)c(NC(=O)c2ccccc2NS(=O)(=O)c2cccc3cccnc23)c1	i
Cc1noc(C)c1C(=O)Nc1sc2c(c1C#N)CCC(C)C2 (stereo not drawn)	i
COc1ccc(S(=O)(=O)N(Cc2ccccc2)c2ccccc2C(=O)Nc2ccc(Br)cc2F)cc1	5%
COc1ccc(-c2ncccc2OC(=O)C23CC4CC(CC(C4)C2)C3)cc1OC	1%
CCCCOCCCNC(=O)c1ccc(Cl)cc1[N+](=O)[O-]	i
N#Cc1c(C(F)(F)F)cc(-c2cccs2)nc1SCC(N)=O	i
CCn1c(COc2c(C)cccc2C)n[nH]c1=S	i
Cc1ccc(C(=O)COc2cccc(NC(=O)c3ccco3)c2)cc1	i
Cc1ccc(OCCN2C(=O)c3ccccc3C2=O)c(C)c1	3%
O=C(Nc1ccncc1)c1ccc2nc[nH]c2c1	i
CS(=O)(=O)Nc1ccc(C2=NN(C(=O)c3cccs3)C(c3c(F)cccc3Cl)C2)cc1 (stereo not drawn)	9%
N#CCCn1nc(-c2ccccc2)cc1-c1ccccc1	i
CCOc1ccc(-c2csc3ncn(CC(=O)Nc4c(CC)cccc4CC)c(=O)c23)cc1	i
CCn1c(SCC(=O)Nc2ccc(Cl)cc2Cl)nnc1C(NC(=O)c1ccccc1Cl)C(C)C (stereo not drawn)	i
CC(=O)c1ccc(NC(=O)Nc2ccc(Cl)c(Cl)c2)cc1	i
O=C(Cc1ccccc1)Nc1ccccc1C(=O)NCCc1ccccc1	4%
Cn1c(SCC(=O)Nc2nc3ccccc3s2)nnc1-c1ccco1	i
